Tgondii IFNg: T. gondii growth inhibition with IFN-gamma, primary screen, cell-based | Toxoplasma gondii growth in IFN-gamma-treated host cells; hits give low values; reference of the scale not given here | 3.8% of 69,000 active | activity change, negative = inhibition, %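 (about 20 µM by stock and volumes)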;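 active means below -70%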;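 further: host cells are HeLa cells infected with Toxoplasma gondii; parasite growth read as luciferase light; one replicate is shown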
Active calls of the source: *; & = joins results of further samples.

SMILES	Tgondii IFNg
Cn1nc(C(=O)N2CCOCC2)c2c1CN(Cc1cccs1)CC2	6
COc1cccc(C(=O)NCCc2sc(-c3cccc(F)c3)nc2C)c1	7
O=C(C[C@H]1CC[C@H]2[C@@H](COC[C@@H](O)CN2S(=O)(=O)c2cccc(Cl)c2)O1)NC1Cc2ccccc2C1	-9
CC[C@@H]1N(Cc2nccs2)CCC[C@@]12CCC(=O)N2C	1
CC1CCN(S(=O)(=O)c2ccc3c(ccc(=O)n3CC(=O)Nc3ccc(F)c(Cl)c3)c2)CC1	-66
O=C(Cc1ccccn1)N1CC(=O)N2[C@@H](CO)[C@@H](c3ccc(C#CCC4CCCC4)cc3)[C@@H]2C1	-29
OC1(c2cccc(C(F)(F)F)c2)CCN(Cc2ccsc2)CC1	-9
CC(=O)NCc1csc(C2CCCN(S(=O)(=O)c3cccc(Cl)c3C)C2)n1 (stereo not drawn)	21
CCOC(=O)C1CCCN(C(=O)C2=C(C)C(=O)OC23CCN(S(C)(=O)=O)CC3)C1 (stereo not drawn)	11
CC12CCC(C(=O)NNc3ccccc3)(C(=O)C1=O)C2(C)C (stereo not drawn)	34
CCc1ocnc1C(=O)N(C)Cc1ccccc1OCC(C)C	46
C[C@@H]1CN([C@@H](C)CO)C(=O)c2cc(NS(C)(=O)=O)ccc2O[C@H]1CN(C)C	0
CC(C)c1nnc(CCC(=O)N2CCC(c3ccccc3)C2)o1 (stereo not drawn)	2
CNS(=O)(=O)CCNC(=O)[C@@]12CNC[C@@H]1CN(C)C2	-3
O=C(c1ccoc1)N1CC[C@@H]2[C@H](CO[C@H]2Cc2nnc(C3CC3)o2)C1	-2
CCNc1ccnc(N2CCN(Cc3ccc4c(c3)OCO4)CC2)n1	-13
Cc1nn(C)c2c1C(c1cc(F)ccc1-n1cccn1)CC(=O)N2 (stereo not drawn)	-38
COc1ccc(-c2nc(Cn3nnc(-c4nc(-c5ccc(C(F)(F)F)cc5)no4)c3C)c(C)o2)cc1	-4
c1ccc2c(c1)NC(C1Nc3ccccc3O1)O2 (stereo not drawn)	34
Cc1cc(NC(=O)CCCn2c(C)nc3ccccc32)c2ncccc2c1	-63
O=C(c1ccc(F)cc1)N1CCC[C@H](c2nc(-c3ccc(F)cc3)no2)C1	3
Fc1ccc(C2CCCN2Cc2cnc(-c3ccco3)nc2)cc1 (stereo not drawn)	6
Cc1ccc(N2CC3(CCN(C(=O)COc4ccccc4)C3)CC2=O)cc1 (stereo not drawn)	-16
Clc1cccc(Nc2nnc(-c3ccccc3)c3ccccc23)c1	2&12
C/C=C/c1ccc([C@H]2[C@@H](CO)N[C@@H]2CN(C(=O)c2ccccc2F)C(C)C)cc1	-1
O=C(c1cn[nH]n1)N1CCN(c2ccccn2)CC1	0
O=C(CCC(=O)OCC(=O)NC1CCCC1)Nc1nccs1	-7
COc1cccc(CCc2ccccc2C(=O)NCC2(O)CCNC2)c1 (stereo not drawn)	4
O=C(NC1CC1)C1CNCCN1C(=O)CCn1cc(Cl)cn1 (stereo not drawn)	-3
COCCN(C)C(=O)c1cnc(-c2noc3cc(N4CCCCC4)ccc23)s1	-28
O=C1NC2(CCN(C(=O)c3ccco3)CC2)CC1c1cccnc1 (stereo not drawn)	1
Cc1ccccc1S(=O)(=O)NCC1CCN(Cc2nccn2C)C1 (stereo not drawn)	-3
O=C(c1ccnc(-n2cnnc2)c1)N1CCOC(CCCc2ccccc2)C1 (stereo not drawn)	8
O=C(Nc1ccccc1F)N1CCCCN2[C@@H](CO)[C@@H](c3ccc(/C=C/c4ccccc4)cc3)[C@@H]2C1	-36
COc1ccc(C(=O)NCCn2nc(-c3nccs3)cc2-c2cccs2)cc1	-66
O=C(C1CCC1)N1CC(=O)N2[C@H](CO)[C@@H](c3ccc(Br)cc3)[C@@H]2C1	4
C[C@@H]1CN([C@H](C)CO)S(=O)(=O)c2ccc(C#CC(C)(C)O)cc2O[C@@H]1CN(C)Cc1ccc(F)cc1	150
Cc1cnc(N2CCC3(CC2)CC(=O)N(C)c2ccccc23)nc1	-1
CC(=O)Nc1ccc2nc(-c3[nH]cnc3-c3ccccc3)ccc2c1	-1
NC(=O)CCCCn1ccc(NC(N)=NCC(F)(F)F)n1	11&16
C=C[C@@H](C1=CC(=O)C(OC)=C(OC)C1=O)c1ccccc1	1
CCN1C(=O)CCc2cc(NC(=O)c3ccco3)ccc21	54
CO[C@H](C(=O)N(C)C[C@@H]1OCc2ccccc2-c2ccccc2C(=O)N([C@@H](C)CO)C[C@H]1C)c1ccccc1	-8
CCCc1c2oc(C(=O)O)cc(=O)c2cc2c(=O)cc(C(=O)O)n(CC)c12	15
CSc1ccc(C2c3[nH]c4ccccc4c3CCN2C(=O)c2cccnc2)cc1 (stereo not drawn)	468
COc1ccccc1-c1nc(Cc2noc(-c3cccnc3)n2)c(C)o1	-62
Cc1ccnc(C(C2CC2)n2cnc3sc4c(c3c2=O)CCNC4)c1 (stereo not drawn)	-8
COCC(=O)N1[C@H](C(=O)NCc2ccccc2)[C@@H](CO)[C@@H]2Cn3c(cccc3=O)[C@@H]21	7
COc1ccc(C2(NCC(C)(C)CN3CCN(C)CC3)CCCC2)cc1	-45
COCC(=O)N1[C@@H]2c3cccc(=O)n3C[C@@H]2[C@@H](CO)[C@@H]1C(=O)NCc1ccccc1	-3
CN(C)CCn1c2c(ccc1=O)CCN(Cc1cccnc1)CC2	3
Cn1c(=O)c2c(ncn2CCOC(=O)C(C)(C)Oc2ccc(Cl)cc2)n(C)c1=O	13
CC(=O)Nc1cccc(-c2ccccc2-c2nnc(C)s2)c1	-23
CCCCC(c1nnnn1CC1CCCO1)N1CCN(c2nc3ccccc3s2)CC1 (stereo not drawn)	-51
COc1ccc(OC)c2c(C)cc(N3Cc4cnn(CCO)c4C3)nc12	-12
S=C(NCC1CCCO1)NC12CC3CC(CC(C3)C1)C2 (stereo not drawn)	-18
COCCO[C@H]1CCN(C(=O)c2cscn2)[C@H]1Cc1cccnc1	2
FC(F)(F)CCc1ccnc(NCc2csc(-c3ncccn3)n2)n1	3
CCOc1ccccc1-c1nc(Cn2nnc(C(=O)Nc3c(C)cc(C)cc3C)c2C)c(C)o1	162
Cc1cnc(C)c(-c2cc(O)c3c(c2)CN(C2Cc4ccccc4C2)CCO3)n1	0

Two of the compounds above, in markdown:
| compound | Tgondii IFNg |
| --- | --- |
| COCCO[C@H]1CCN(C(=O)c2cscn2)[C@H]1Cc1cccnc1 | 2 |
| FC(F)(F)CCc1ccnc(NCc2csc(-c3ncccn3)n2)n1 | 3 |

Continuation:
SMILES	Tgondii IFNg
O=C(NCCc1csc(-c2ccccc2)n1)C1CCN(S(=O)(=O)c2cccs2)CC1	-34
Cc1cccc(-c2ocnc2C(=O)N2CCN(c3nc4ccccc4s3)CC2)c1	-58
COc1cc(CCC(C)=O)ccc1O	19
CC(=O)OCC(=O)[C@@]12OC3(CCCC3)O[C@@H]1CC1C3CCC4=CC(=O)C=C[C@]4(C)[C@@]3(F)[C@@H](O)C[C@@]12C (stereo partly drawn)	-13&-8
Cc1oc(-c2ccccc2)nc1Cc1noc(COc2ccc(F)cc2)n1	-47
c1cnc2ccc(-c3ccc4ncccc4c3)cc2c1	62
CCN1C(=O)CCc2cc(NC(=O)Cc3cccc(OC)c3)ccc21	6
Cc1cccc(OC2CN(C(=O)CCc3n[nH]c(C)c3C)C2)c1	-1
CCCc1cc(C(=O)N2CCCC(c3cc4ccccc4cn3)C2)n(C)n1 (stereo not drawn)	-31
O=C(O)CN1CCC2(CC2C(=O)Nc2cccc(F)c2)C1 (stereo not drawn)	0
C/C=C/c1ccccc1[C@H]1[C@@H](CO)N(C(=O)Nc2ccc(OC)cc2)[C@H]1C#N	18
CC(C)NC(=O)C1CCC2(CCN(c3nncs3)CC2)CO1 (stereo not drawn)	-10
O=S(=O)(c1ccc(Cl)cc1)N(Cc1ccccn1)Cc1ccccn1	92
COc1cccc(S(=O)(=O)Nc2ccc3c(c2)C(=O)N(C)C[C@@H](OC)[C@H](C)CN(Cc2ccccc2F)[C@H](C)CO3)c1	-97*
N#Cc1c(N)sc(=S)c2c1CCCC2	20
CC1CCN(S(=O)(=O)c2ccc3c(ccc(=O)n3CC(=O)NC3CCCCC3)c2)CC1	20
C[C@]12CC[C@H](O)CC1=CCC1C2CC[C@]2(C)C(n3cnc4ccccc43)=CCC12 (stereo partly drawn)	-63
O=C(NC[C@H]1N[C@H](CO)[C@@H]1c1ccc(-c2ccccc2)cc1)c1cccc(F)c1	-27
Cc1nc(C2COCCN2C(=O)c2cnoc2)cs1 (stereo not drawn)	-44
c1cc(CN2CCCn3cncc3C2)n(-c2nccs2)c1	52
O=C(Nc1ccccc1)Nc1ccc(-c2nc(-c3ccccc3)co2)cc1	16
C[C@@H]1CN([C@H](C)CO)C(=O)c2ccccc2-c2ccccc2CO[C@@H]1CN(C)S(=O)(=O)c1ccc([N+](=O)[O-])cc1	-14
COc1cccc(CC(=O)Nc2ccc(-c3nc(-c4ccc(C)cc4C)co3)cc2)c1	-4
COc1cccc(-c2cc(=O)c3cc(OC)ccc3o2)c1	259
CC(C)CNC(=O)c1nc2c(s1)CCN(C(=O)NCc1ccccc1)CC2	-84*
CCOC(=O)c1nn(Cc2ccc(OC)cc2)c2c1CN(C(=O)CSc1ccncc1)CC2	-67
O=C1OCCN1CCNCCC(=O)N1CCCc2ccccc21	-4
Cn1cnc(S(=O)(=O)N2CC[C@H](O)[C@@H]2Cc2cnn(C)c2)c1	3
CCOC(=O)CC(NC(=O)N1CCC2(CC1)Nc1cc(F)ccc1-n1cccc12)c1ccccc1 (stereo not drawn)	384
CN1CCN2CCN(C(=O)CCn3ccnc3)CC2C1 (stereo not drawn)	0
Cc1ccc(C2=NC3(CCN(CC(=O)NCc4ccccc4)CC3)NC2=O)cc1C	-8
COc1ccc(-c2noc(-c3ccccc3-c3ccccc3)n2)cc1	-51
COc1ccccc1NC(=O)Cn1c(=O)cc(C(=O)N2CCCCC2)c2ccccc21	10
CC1(C(=O)N2CCC3(CC2)NC(=O)c2ccccc2O3)NCCc2c1[nH]c1ccccc21 (stereo not drawn)	47
CC(C)CN1C(=O)CCc2cc(NS(=O)(=O)c3ccc(F)cc3)ccc21	-16
c1ccc(Oc2cnc3ccccc3n2)c(CN2CCOCC2)c1	19
CC1CN(S(=O)(=O)c2cccc(F)c2)CCC12CCC(C(=O)Nc1cccnc1)O2 (stereo not drawn)	-35
CSc1ccc(NC(=O)N2CCC(c3nc(C(=O)N(C)C)c(C)o3)CC2)cc1	-26
CCCCN(CC)CCNC(=O)C1=C(C)C(=O)OC12CCN(S(=O)(=O)CC)CC2	25
O=C(Nc1ccccc1)C1CN(C(=O)NCc2ccccc2)CC12CCOCC2 (stereo not drawn)	-10
COc1ccccc1CNC(=O)C[C@H]1CC[C@H]2[C@@H](COc3ccc(NC(C)=O)cc3C(=O)N2C)O1	12
Cc1nc2ccc(-n3ccnc3-c3ccncc3)cc2[nH]1	-5
CCCNC(=O)N1CC2(CCN(Cc3cccc(OC)c3)CC2)c2c(n(C)c3cc(OC)ccc23)[C@H]1CO	-52
Cc1ccc(NC(=O)N2CCC3(CCC(C(=O)NCC4CC4)O3)C(C)C2)cc1 (stereo not drawn)	49
CC(CCN1CCC2(CC1)C(=O)N(Cc1ccccc1)C(=O)N2C)c1ccccc1 (stereo not drawn)	-27
C=CCN(Cc1ccccc1OC)C(=O)C1Cc2ccccc2C1	0
C=C(C)COc1ccccc1C(=O)NC(CC)c1nc(C)no1 (stereo not drawn)	5
O=C(c1ccc(-n2cnnc2)cc1)N1CCC(O)(c2ccc(F)cc2)CC1	-4
O=C(CN1CCOCC1)N1[C@@H]2CNc3ccccc3[C@@H]2[C@@H]1CO	-3
COc1ccc(S(=O)(=O)N2CCC(C(=O)N3CCc4ccccc4C3)CC2)cc1	5
CO[C@H](CN(C)Cc1cc(F)ccc1F)[C@H](C)CN([C@@H](C)CO)S(=O)(=O)c1ccc(C)cc1	-37
Cc1cn[nH]c1C1CCN(C(=O)Cc2c(C)noc2C)C1 (stereo not drawn)	-34
CCCCC1CCCN1C(=O)c1sc(N)nc1CC (stereo not drawn)	-2
O=C(C[C@@H]1CC[C@H]2[C@@H](COC[C@H](O)CN2Cc2ccc(Oc3ccccc3)cc2)O1)N1CCN(c2ccccc2)CC1	-45
COc1cc(Br)c(CCC#N)cc1OC	85
COc1ncnc2c1CCN(C(=O)c1ccc3ncccc3c1)CC2	-13
CCOc1ccc(-c2nc(CN(c3ccccc3C)S(=O)(=O)c3cccs3)c(C)o2)cc1	-60
O=C(Cc1cn2cc(Br)ccc2n1)N1CCSCC1	63
N#C[C@@H]1N[C@H](CO)[C@H]1c1ccc(C2=CCCC2)cc1	-8
CCOC(=O)C12CC=CCN(S(C)(=O)=O)C1CCC2 (stereo not drawn)	-9

Nothing new here: an excerpt of the list.
SMILES	Tgondii IFNg
Cc1ccc(NC(=O)N2CCC3(CCC(C(=O)NCC4CC4)O3)C(C)C2)cc1 (stereo not drawn)	49
CC(CCN1CCC2(CC1)C(=O)N(Cc1ccccc1)C(=O)N2C)c1ccccc1 (stereo not drawn)	-27
C=CCN(Cc1ccccc1OC)C(=O)C1Cc2ccccc2C1	0
C=C(C)COc1ccccc1C(=O)NC(CC)c1nc(C)no1 (stereo not drawn)	5
O=C(c1ccc(-n2cnnc2)cc1)N1CCC(O)(c2ccc(F)cc2)CC1	-4
O=C(CN1CCOCC1)N1[C@@H]2CNc3ccccc3[C@@H]2[C@@H]1CO	-3
COc1ccc(S(=O)(=O)N2CCC(C(=O)N3CCc4ccccc4C3)CC2)cc1	5
CO[C@H](CN(C)Cc1cc(F)ccc1F)[C@H](C)CN([C@@H](C)CO)S(=O)(=O)c1ccc(C)cc1	-37
Cc1cn[nH]c1C1CCN(C(=O)Cc2c(C)noc2C)C1 (stereo not drawn)	-34
CCCCC1CCCN1C(=O)c1sc(N)nc1CC (stereo not drawn)	-2
O=C(C[C@@H]1CC[C@H]2[C@@H](COC[C@H](O)CN2Cc2ccc(Oc3ccccc3)cc2)O1)N1CCN(c2ccccc2)CC1	-45
COc1cc(Br)c(CCC#N)cc1OC	85
COc1ncnc2c1CCN(C(=O)c1ccc3ncccc3c1)CC2	-13
CCOc1ccc(-c2nc(CN(c3ccccc3C)S(=O)(=O)c3cccs3)c(C)o2)cc1	-60

Bioassay records (PubChem BioAssay)

This is a subset, so the mix of outcomes need not match the whole.
